MARV entry inh: inhibitors of Marburg virus binding or cell entry; Marburg virus pseudotyped entry inhibition, cell reporter; control for the full effect not named in the record; about a third of the inactives were read at about 46 µM; Potency, µM (doses to about 37.8 µM), for inactives: at the top dose activity change, negative = inhibition, most hits filed as inhibitors; 1.8% of 300,000 active; active = well fitted inhibition curve with a large enough effect; inconclusive = small, poorly fitted or top-dose-only effect, or effect the other way; inactive = flat fitted curve, though single readings scatter; tested in HEK293 cells; about a fifth of its hits are not listed in these tables; further: on the % scale 0 is the no-effect control and ±100 the full control effect; luciferase read-out
RE007 growth inh: less growth of the S. pombe RE007 Vpr strain | 0.21% of 360,000 active | AID 651644 | S. pombe RE007 Vpr strain, BacTiter-Glo ATP luminescence, 24 h; control for the full effect not named in the record | Potency, µM (titrated, usually from 92.2 µM), for the others: at the highest dose activity change, negative = less growth; active = well fitted falling curve with a large enough effect; inconclusive = small, poorly fitted or top-dose-only effect; inactive = no such curve, though single readings can be large or run the other way;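 further: on the % scale 0 is the no-effect control and ±100 the full control effect; nearly all actives have a fitted effect of over 50% in size; the assay follows cell death caused by Vpr and the record does not say whether a fall means rescue or toxicity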
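Fission yeast strain RE007, carrying one chromosomally integrated HIV-1 vpr copy, was seeded at OD 0.01 in PMG+AL medium with 23 nL pinned compound. After 24 h at 30 °C and 99% humidity, viability was read by BacTiter-Glo luminescence.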
LASV entry inh: Lassa virus entry inhibition | Potency, µM (series often up to 37.9 µM), inactives show top-dose activity change, negative = inhibition, most hits filed as inhibitors | 1.2% of 300,000 active | Lassa virus pseudotype entry inhibition, cell reporter; control for the full effect not named in the record; active means well fitted inhibition curve with a large enough effect; inconclusive means small, poorly fitted or top-dose-only effect, or effect the other way; inactive means flat fitted curve, though single readings scatter; tested in HEK293 cells; further: on the % scale 0 is the no-effect control and ±100 the full control effect; nearly all actives have a fitted effect of over 50% in size; luciferase read-out
Cruzain inh noDet: inhibitors of Trypanosoma cruzi cruzain without detergent | P25779 | 2.3% of 200,000 active | Potency, µM, inactives show max response, negative = inhibition, actives largely listed as inhibitors | purified cruzain, Z-FR-AMC fluorescence, no detergent | AID 1476; active means well fitted curve in the direction sought with a large enough effect; inconclusive means small, poorly fitted or top-dose-only effect, or another doubt; inactive means no such curve, though single readings can be large; an effect the other way counts as inactive or inconclusive;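 further: plate controls were enzyme without inhibitor for no effect and buffer without enzyme for full effect; nearly all actives have a fitted effect of over 40% in size; top concentration of the series not given in the record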
Target sequence (P25779 123-467 limits assumed): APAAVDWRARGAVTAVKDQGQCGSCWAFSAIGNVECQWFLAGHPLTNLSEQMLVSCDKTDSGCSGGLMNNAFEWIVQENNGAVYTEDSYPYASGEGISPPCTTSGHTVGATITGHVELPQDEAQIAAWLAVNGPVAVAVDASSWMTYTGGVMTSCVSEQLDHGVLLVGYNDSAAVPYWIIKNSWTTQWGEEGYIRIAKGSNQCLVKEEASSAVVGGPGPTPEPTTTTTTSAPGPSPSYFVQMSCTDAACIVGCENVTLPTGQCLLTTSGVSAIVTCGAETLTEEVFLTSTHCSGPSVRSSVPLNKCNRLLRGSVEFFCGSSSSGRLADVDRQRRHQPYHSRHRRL
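Detergent-free condition (0.00005% Triton X-100) in acetate buffer pH 5.5 with DTT. 1.5 nM enzyme and compound were pre-mixed 15 min, then 2 uM Z-FR-AMC substrate added; reaction progress from fluorescence change between first and third reads (60 s).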
StopGo reporter: FMDV 2A StopGo reporter, luciferase signal; human cells with a luciferase reporter of 2A StopGo recoding; control for the full effect not named in the record; Potency, µM (doses to about 57.9 µM), for inactives: top-dose signal change, negative = less light; 1.2% of 410,000 active; active = well fitted falling curve with a large enough effect; inconclusive = small, poorly fitted or top-dose-only effect; inactive = no such curve, though single readings can be large or run the other way; tested in HEK293T cells; further: on the % scale 0 is the no-effect control and ±100 the full control effect; nearly all actives have a fitted effect of over 45% in size; luciferase light after 4 h
SARS PLP yeast: inhibitors of SARS-CoV papain-like protease in yeast | S. cerevisiae expressing SARS-CoV PLpro, growth rescue; control for the full effect not named in the record | 0.19% of 330,000 active | Potency, µM (series often up to 32.9 µM), for the others: top-dose activity, positive = growth rescue; further: 0% is about no effect; nearly all actives have a fitted effect of over 55% in size; growth read by luminescence after 48 h
NS1 inh: blocks influenza NS1 protein function. S. cerevisiae slowed by influenza A NS1, growth recovery by OD600. Potency, µM (doses to about 46.1 µM), without a hit: at the top dose activity, positive = more growth. 0.4% of 270,000 active. AID 2326; further: actives are rising curves; nearly all actives have a fitted effect of over 50% in size
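Read-out: OD600 growth recovery of NS1-expressing budding yeast. Cells grown overnight at 30C in -URA glucose medium, washed, resuspended and diluted 1:100 in 2% galactose assay medium, pH 6.0. Same strain lacking NS1 served as positive control.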
Cruzain Triton: inhibitors of Trypanosoma cruzi cruzain with detergent; P25779; purified cruzain, Z-FR-AMC fluorescence, 0.01% Triton; Potency, µM, inactives show max response, negative = inhibition, hits mostly inhibitors; 0.43% of 200,000 active; active means well fitted curve in the direction sought with a large enough effect; inconclusive means small, poorly fitted or top-dose-only effect, or another doubt; inactive means no such curve, though single readings can be large; an effect the other way counts as inactive or inconclusive;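 further: plate controls were neutral wells for no effect and buffer without enzyme for full effect; nearly all actives have a fitted effect of over 40% in size; top concentration of the series not given in the record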
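Enzyme 1.5 nM, Z-FR-AMC 2 uM, NaOAc 100 mM pH 5.5, DTT 5 mM, Triton X-100 0.01%; 15 min RT compound preincubation; kinetic ex360/em450, 60 s delta.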
Numbers without * were called inactive; u = inconclusive; x = not tested or not shown; & = joins results of further samples; [ ] = remark or other dose. Unless noted, the call rests on the fitted dose curve; in most records, active means well fitted rising curve with a large enough effect; inconclusive means small, poorly fitted or top-dose-only effect; inactive means no such curve, though single readings can be large or run the other way. Potency means the concentration at half of the fitted maximal effect. Compounds were not picked by outcome (roughly 4.6% active in at least one column).

SMILES	MARV entry inh	RE007 growth inh	LASV entry inh	Cruzain inh noDet	StopGo reporter	SARS PLP yeast	NS1 inh	Cruzain Triton
COc1ccc(-c2cn3cccnc3n2)cc1NC(=O)c1cc(OC)c(OC)c(OC)c1	0%[46.1 µM]	21%	13%	x	13%	-2%	x	x
O=c1ncn(C2CCCCC2)c(=O)[nH]1	3%[46.1 µM]	6%	9%[46.1 µM]	x	3%	x	x	x
CN1CCN(NS(=O)(=O)c2ccc(Cl)cc2)CC1	u	35%	x	x	-12%	-1%	6%	x
Cc1cccc(C(C)C)c1NC(=O)c1cccnc1	2%	-21%	u	-7%	-5%	2%	3%	3.7%
CCN(CC(=O)Nc1cc(C)nn1-c1nc(C)cc(C)n1)Cc1ccccc1	u	-11%	u	-1%	-26%	u	-13%	2.0%
COC(=O)C1=CN(c2ccc(F)cc2)C=C(C(=O)OC)C1c1ccc(O)cc1	11%[46.1 µM]	-5%	u	x	-7%	-3%	-4%	x
CCOc1ccc(Br)cc1S(=O)(=O)NCc1ccc(S(N)(=O)=O)cc1	-29%	5%	3%	x	41%[activator]	2%	1%	x
COc1cc(NS(=O)(=O)c2ccc(NC(=S)NC(=O)/C=C/c3ccco3)cc2)ncn1	-15%	6%	1%	x	39%[activator]	-1%	x	x
O=C1NCCCc2c1oc1cc(Br)c(O)c(Br)c21	-6%	-11%	22%	-10%	-19%	3%	2%	-1.1%
CCc1nn(CC(=O)N2CCC3(CC2)OCCO3)c(=O)c2cccn12	0%[46.1 µM]	-7%	25%[46.1 µM]	x	-11%	-2%	-1%	x
O=C(CSc1nnc(-c2cccs2)o1)N1CCOCC1	9%&-6%	-6%	7%	1%	37%[activator]	-4%	9%	0.5%
CCCc1cc(C(=O)N(C)CC(=O)Nc2ccc(OCC)c(OCC)c2)sc1C	u	0%	-17%	x	-14%	-4%	x	x
CN(C)c1cc[n+](CC(=O)Nc2ccc(Cl)c([N+](=O)[O-])c2)cc1	u	u	-10%[46.1 µM]	x	-5%	9%	-6%	x
COC(=O)c1ccccc1NC(=O)COC(=O)CSCC(=O)N1CCOCC1	1%	0%	4%	-1%	18%	4%	-5%	2.0%
O=C(NCc1nc(-c2ccccc2)no1)c1ccc2c(c1)OCO2	12%	4%	17%	-7%	x	0%	-86%	-3.4%
CCc1ccc2nc(Nc3nc(COC)cc(=O)[nH]3)nc(C)c2c1	-18%	-9%	-25%	-12%	-14%	-3%	6%	-2.7%
COc1ccc(NCC(=O)Nc2ccccc2C#N)cc1Cl	-2%	-2%	16%	-8%	-10%	-1%	-2%	1.6%
CC(C)CNC(=O)C1=CC(c2ccc3c(c2)OCO3)=NS(=O)(=O)N1C	1%[46.1 µM]	x	-16%[46.1 µM]	6%	20%	x	x	-9.1%
O=C(CSc1nc2nccnc2c(=O)n1CCc1c[nH]c2ccccc12)Nc1ccccc1F	x	x	20%[46.1 µM]	1%	-1%	x	x	-2.4%
CC(C)c1nnc(SCC(=O)NCc2ccc3c(c2)OCO3)n1C	-5%	1%	-5%	4%	-14%	-24%	2%	2.7%
COc1ccc(-c2cn3c(n2)sc2cc(C(=O)Nc4cc(OC)cc(OC)c4)ccc23)cc1	x	x	11%[46.1 µM]	3%	19%	x	x	1.4%
Cc1ccc(CN2CCN(Cc3ccccc3)CC2)cc1	x	-2%	x	x	-25%	1%	-3%	x
O=C(CN1CCCCCC1)Nc1ccc(S(=O)(=O)N2CCOCC2)cc1	23%[46.1 µM]	-11%	0%	x	-9%	1%	5%	x
Cc1cc(N2CCOCC2)c(F)cc1C(=O)c1ccccc1	14%	13µM*	-2%	5%	-7%	12%	-18%	-1.2%
COc1ccc2c(C)c(C(=O)N3CCN(Cc4ccccc4)CC3)oc2c1	x	2%	x	x	-23%	7%	-6%	x

Later entries:
SMILES	MARV entry inh	RE007 growth inh	LASV entry inh	Cruzain inh noDet	StopGo reporter	SARS PLP yeast	NS1 inh	Cruzain Triton
Cn1c(SCc2ccc(C(F)(F)F)cc2)nc2c([nH]c3ccccc32)c1=O	x	x	11%[46.1 µM]	-11%	-17%	x	x	0.8%
O=C(c1cn(Cc2ccccc2)nc1-c1ccc(Cl)cc1)N1CCN(c2ccccn2)CC1	u	4%	u	x	-7%	-4%	x	x
CCOc1ccc(N2CC(C(=O)NC3CCCC3)CC2=O)cc1 (stereo not drawn)	-3%[46.1 µM]	5%	3%[46.1 µM]	x	3%	2%	8%	x
CCCc1c(O)c2ccccc2n(-c2ccccc2)c1=O	2%	3%	0%	8%	-25%	6%	21%	0.2%
O=C(Cn1c(=O)ccc2cc(S(=O)(=O)N3CCCC3)ccc21)Nc1ccccc1	x	x	u	-2%	-5%	x	x	-1.0%
CNc1nc(N)c([N+](=O)[O-])c(NC2CCCCC2)n1	13%	-8%	u	x	2%	-1%	-41%	x
Cc1noc(C)c1S(=O)(=O)N1CCCC(C(=O)NCCc2ccc(Cl)cc2)C1 (stereo not drawn)	u	-4%	-1%	-14%	-29%	1%	-4%	3.9%
COc1cccc(CNc2ccc([N+](=O)[O-])c(NCC(=O)O)n2)c1	-9%[14.2 µM]	28%	4%	x	0%	0%	5%	x
COc1cc(/C=C/c2nc(C#N)c(N3CCN(C)CC3)o2)cc(OC)c1OC	u	x	0%[46.1 µM]	13µM*	-1%	x	x	-0.6%
Cc1ccccc1N(CC(=O)NCC1CCCO1)C(=O)CCC(=O)Nc1nccs1 (stereo not drawn)	-4%[46.1 µM]	12%	27%	x	0%	3%	10%	x
Cc1cccc(C)c1OCc1nnc(SCC(=O)NCCc2ccccc2)o1	-3%	-2%	0%	21%	-22%	-19%	-50%	-5.8%
O=c1cc(CN2CCN(Cc3ccccc3)CC2)c2cc(O)ccc2o1	x	0%	x	x	-28%	3%	1%	x
O=c1oc(-c2ccc(Cl)c(Cl)c2)nn1-c1ccc(C(F)(F)F)cn1	17%[46.1 µM]	8%	11%[46.1 µM]	x	4%	1%	-1%	x
COc1ccc(N(CC(=O)N2CCc3ccccc3C2)S(C)(=O)=O)cc1	11%	2%	-7%	8%	x	16%	5%	0.7%
CCC(C)(C)NC(=O)CN(C(=O)c1snc(C(N)=O)c1N)c1ccc(OC)c(OC)c1	-5%	-8%	-8%	-6%	-10%	-5%	3%	-2.7%
CCOC(=O)C1=C(c2ccccc2)O/C(=C(/C#N)C(F)(F)F)S1	-5%	x	x	-3%	x	-1%	10%	-6.9%
COc1ccccc1NC(=O)CSc1nnc(CNC(=O)COc2ccc(Cl)cc2)o1	1%&7%	13%	5%	21%	-9%	7%	-1%	-0.4%
O=C(O)c1cc(S(=O)(=O)N(Cc2ccccc2)c2ccccc2)ccc1Cl	x	-3%	x	x	6%	2%	4%	x
COCCNC(=O)CCCn1c(SCC(=O)Nc2ccc(F)cc2)nc2c(sc3ccccc32)c1=O	u	x	-10%[46.1 µM]	25%	7%	x	x	0.7%
Cc1ccc(C(=O)CSc2nnc(-c3ccccc3)o2)cc1	2%	-13%	2%	-10%	x	-5%	-2%	-5.9%
COC(=O)c1sccc1NC(=O)CC1C(=O)NCCN1C(=O)Nc1cc(Cl)ccc1OC (stereo not drawn)	u	3%	-1%[46.1 µM]	x	-7%	-1%	-1%	x
CN1CCc2c(sc3c2c(=O)n(-c2ccccc2)c2nnc(SCc4ccc(Cl)cc4)n32)C1	u	-4%	-15%	-26%	u	-2%	13µM*	-3.1%
COc1cc(/C=C2\SC(=S)N(CCC(=O)Nc3ccccc3O)C2=O)cc(OC)c1OC	x	7%	x	x	u	2%	22%	x
CCCNC(=O)Nc1cc(C(=O)NCc2cccc(OCC)c2)ccc1N1CCCC1	x	x	4%[46.1 µM]	10%	-3%	x	x	-3.4%
O=C(Nc1ccccn1)c1cccc(S(=O)(=O)N2CCc3ccccc3C2)c1	4%	-12%	4%	x	u	x	x	x

New compounds follow:
SMILES	MARV entry inh	RE007 growth inh	LASV entry inh	Cruzain inh noDet	StopGo reporter	SARS PLP yeast	NS1 inh	Cruzain Triton
COc1cc2c(cc1OC)C(c1cccc(Br)c1)NC(=O)C2 (stereo not drawn)	x	1%	x	x	-20%	1%	13%	x
CCC(C(=O)NCCN1CCOCC1)n1c2ccccc2c2nc(=O)cc(C)n21 (stereo not drawn)	13%[46.1 µM]	-5%	-4%[46.1 µM]	x	-11%	-3%	-6%	x
CC1=NN(C(N)=S)C(=O)C1N=Nc1c(C)n(C)n(-c2ccccc2)c1=O (stereo not drawn)	-19%	12%	2%	x	35%[activator]	x	x	x
O=C(c1ccc(-c2ccccc2)cc1)C1CCCN(C(=O)Cn2cncn2)C1 (stereo not drawn)	9%[46.1 µM]	9%	u	x	-14%	-1%	-2%	x
COc1ccc(S(=O)(=O)N2CCc3ccccc32)cc1C(=O)N(CC(C)C)C1CCS(=O)(=O)C1 (stereo not drawn)	6%	-13%	-22%	x	29%	-1%	x	x
Cn1nc(C(F)(F)F)c(C(=O)Nc2ccc(F)cc2)c1Cl	-7%[46.1 µM]	-6%	0%	x	-7%	-2%	6%	x
COc1cccc(Nc2nc3ccccc3nc2NS(=O)(=O)c2cccs2)c1	-21%	3%	u	-25%	u	1%	-5%	-7.8%
CCNC(=O)COC(=O)COc1ccc(Cl)cc1C	20%	17%	2%	6%	0%	-1%	-63%	2.2%
C=CCn1ncc(OC)c(Cl)c1=O	9%	-7%	23%	9%	5%	-1%	5%	2.1%
O=C(OCCN1C(=O)c2ccccc2C1=O)c1ccccc1	1%[46.1 µM]	7%	-1%	x	13%	0%	x	x
CN1C(=O)C(c2ccccc2)C(=O)N(C)C1=O	1%[46.1 µM]	-11%	13%	x	-3%	x	x	x
COc1ccc(NC(=O)CCC(=O)Nc2ccc3nc(N4CCOCC4)cc(C)c3c2)c(OC)c1	-4%[46.1 µM]	-3%	-12%[46.1 µM]	x	20%	3%	-9%	x
O=C(O)c1ccc(S(=O)(=O)NCC2CCCCC2)cc1	-7%[46.1 µM]	-11%	-20%[46.1 µM]	x	-4%	1%	1%	x
CCOC(=O)N1CCN(C(=O)C2CCCN(c3ncnc4c3nc3n4CCCCC3)C2)CC1 (stereo not drawn)	0%[46.1 µM]	1%	-9%[46.1 µM]	x	-10%	-3%	-7%	x

Screening results deposited in PubChem BioAssay by National Center for Advancing Translational Sciences (NCATS).
